eIF4H inh = human eIF4H binding inhibitors, primary screen, translation initiation inhibitor project, biochemical, uHTS, fluorescence polarization; eIF4H fluorescence polarization binding assay; inhibition, % at 35 µM; hit rate 0.94% among 290,000;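 active means 50% or more with normal probe brightness, or confirmed in later tests; inconclusive means above 50% with abnormal brightness, or retests that disagree; inactive means below 50% or failed in later tests; about a fifth of its hits are not listed in these tables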;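 further: calls also rest on retests at 20 µM and on dose response follow-up; 0% = protein and probe with vehicle and 100% = probe without protein; strong numbers were not always called active; many hits fall short of the cut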
CSC inhib = cancer stem cell viability inhibitors, primary screen, luminescence. cancer stem cell-like cells viability. inhibition, % at 7.5 µM. hit rate 1.1% among 300,000. AID 2717, 2010;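 active means mean at 75% or more and at least half the replicates too; inconclusive means mean and replicates disagree; tested in HMLE shEcad cells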;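 further: 0% = median of negative and 100% = median of positive control wells; the first replicate is given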
PABP polyA inh = PABP poly(A) RNA binding inhibitors, primary screen, biochemical, fluorescence polarization, uHTS; inhibition, % at 35 µM; hit rate 1% among 290,000; AID 2014, 2009;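 active means 50% or more with normal probe brightness, or confirmed in later tests; inconclusive means above 50% with abnormal brightness, or retests that disagree; inactive means below 50% or failed in later tests; about a fifth of its hits are not listed in these tables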;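 further: calls also rest on retests at 20 µM and on dose response follow-up; controls were probe without protein and protein plus probe with vehicle; some compounds called inactive have numbers as strong as hits; many hits fall short of the cut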
Target sequence (P11940 whole entry, looked up): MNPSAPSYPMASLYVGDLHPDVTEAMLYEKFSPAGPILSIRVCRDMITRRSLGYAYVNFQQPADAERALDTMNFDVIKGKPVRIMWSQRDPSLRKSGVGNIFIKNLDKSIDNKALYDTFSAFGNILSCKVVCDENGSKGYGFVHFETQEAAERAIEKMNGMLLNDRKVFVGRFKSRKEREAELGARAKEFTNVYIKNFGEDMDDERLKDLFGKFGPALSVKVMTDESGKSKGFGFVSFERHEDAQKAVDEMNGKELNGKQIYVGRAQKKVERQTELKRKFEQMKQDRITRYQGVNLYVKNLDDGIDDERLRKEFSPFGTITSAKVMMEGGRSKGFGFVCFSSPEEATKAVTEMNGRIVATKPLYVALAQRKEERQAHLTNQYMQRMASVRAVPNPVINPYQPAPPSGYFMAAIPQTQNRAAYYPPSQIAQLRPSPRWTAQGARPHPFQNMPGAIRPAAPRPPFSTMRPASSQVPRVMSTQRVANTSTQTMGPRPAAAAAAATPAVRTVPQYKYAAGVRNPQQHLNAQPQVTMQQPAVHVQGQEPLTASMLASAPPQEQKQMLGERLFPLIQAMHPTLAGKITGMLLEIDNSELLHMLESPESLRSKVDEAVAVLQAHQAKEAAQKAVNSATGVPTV
Env fusion inh = inhibitors of HIV-1 Env-driven cell-cell fusion, primary screen, HeLa-JRFL effector, CEM21 target cells, luciferase; inhibition, % at 12.3 µM; AID 651610, 2012; hit rate 1.1% among 360,000;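 active means mean replicate inhibition score of at least 50 and every replicate individually at or above 50; inconclusive means only one of the two criteria met; inactive means mean below 50 and not all replicates reaching 50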;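 further: 0% = plate neutral controls and 100% = maraviroc near 300 nM; one replicate is shown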
Rce1 inh = yeast Rce1p protease inhibitors, primary screen, biochemical, fluorescence, cell-free homogeneous | hit rate 0.27% among 290,000 | calls only | AID 2563, 2010 | yeast membranes, quenched prenylated peptide cleavage fluorescence;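 active means fall in fluorescence gain of 50% or more versus controls, with final raw signal at or below 3038400; inconclusive means same 50% fall but final raw signal above 3038400; inactive means fall in fluorescence gain under 50%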;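 further: plate controls were neutral control wells for no effect and wells lacking membranes for full effect; tested at 10 µM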
MT1-MMP act inh = blockers of MT1-MMP proenzyme processing, primary screen, HT1080 RFP-PRO-GFP cells, GFP/RFP fluorescence. Matrix metalloproteinase-14 (Homo sapiens), P50281. GFP/RFP ratio fluorescence, overnight; percent of plate control window, DMSO zero. GFP/RFP ratio change, % at 20 µM. hit rate 0.061% among 360,000;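 active means GFP/RFP ratio change of at least 30% with cell ATP level not reduced by more than half and red fluorescence within 50% of control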; further: strong numbers were not always called active
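Assay system: HT1080 RFP-PRO-GFP cells. Benchmarks: DMSO vehicle wells and RFP-L50D-GFP reporter cell wells. Times: overnight cell settling, then overnight compound exposure, 37 °C, 5% CO2. Compound: 20 µM single dose, 1% DMSO. Read-out basis: GFP/RFP fluorescence ratio.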
UUG fidelity = modulators of yeast start codon fidelity, primary screen, whole organism, S. cerevisiae, single point, plate reader; activity score, % at 18.7 µM; AID 602363, 2012; hit rate 0.13% among 350,000; S. cerevisiae UUG-firefly luciferase reporter, luminescence/redox ratio;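 active means replicate mean at a twofold rise or more, about +100% in these data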;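 further: firefly luciferase made from a UUG start codon reports start codon fidelity; reporter light over untreated wells divided by growth signal over untreated wells; some hits fall short of that in this replicate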
eIF4H inh retest = recorded beside eIF4H inh, whose call it bears; inhibition, %; compound at 20 µM; confirmation average;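 mean of two retest wells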
PABP polyA inh retest = recorded beside PABP polyA inh, whose call it bears; inhibition, %; compound at 20 µM; confirmation repeats;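 mean of two retest wells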
MT1-MMP act inh RFP = also measured in MT1-MMP act inh; calls as there; RFP signal change, %; measured here: RFP expression control read;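 0 = vehicle wells; hits needed this value within 50% of zero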
* marks the source's active call; other numbers are inactive results. These rows are one share of the data; count on the stated rates, not on these rows.

How did CCOc1ccc(/C=C2/C(=O)NC(=O)N(CCc3ccc(F)cc3)C2=O)cc1 do in these assays?
eIF4H inh: inconclusive; CSC inhib: -7; PABP polyA inh: 2; Env fusion inh: -10; Rce1 inh: inactive; MT1-MMP act inh: -4; UUG fidelity: -12; MT1-MMP act inh RFP: 3

Results for CCOC(=O)/C(=N\Nc1ccccc1)N1CC1 ?
eIF4H inh: -5; CSC inhib: 13; PABP polyA inh: -2; Env fusion inh: -5; Rce1 inh: inactive; MT1-MMP act inh: -1; MT1-MMP act inh RFP: 0

How did CCN(CC)CCCN=C(C)c1c(O)n(-c2ccc(C)cc2)c(=O)[nH]c1=O do in these assays?
eIF4H inh: -13; CSC inhib: -5; PABP polyA inh: 1; Rce1 inh: inactive; MT1-MMP act inh: 2; UUG fidelity: -13; MT1-MMP act inh RFP: 4

What do the screens show for `COC1=CC2[C@@H]3Cc4ccc(OC)c(O)c4[C@]2(CCN3C)CC1=O` (stereo not given in full)?
Env fusion inh: -52; MT1-MMP act inh: -5; UUG fidelity: -6; MT1-MMP act inh RFP: 3

What do the screens show for `CN1CCN(c2ccc(N)cc2Cl)CC1`?
eIF4H inh: 16; CSC inhib: -8; PABP polyA inh: 17; Env fusion inh: 0; Rce1 inh: inactive; MT1-MMP act inh: -2; MT1-MMP act inh RFP: 0

How did Cc1cccc(-n2c(O)c(C=NCCN3CCNCC3)c(=O)[nH]c2=S)c1 do in these assays?
eIF4H inh: -6; CSC inhib: -1; PABP polyA inh: 0; Env fusion inh: 11; Rce1 inh: inactive; MT1-MMP act inh: 0; UUG fidelity: -7; MT1-MMP act inh RFP: -1

Results for CC(Cc1ccccc1Sc1ccc(O)cc1)N(C)C (stereo not given) ?
eIF4H inh: -7; CSC inhib: -11; PABP polyA inh: 4; Rce1 inh: inactive; MT1-MMP act inh: -20; MT1-MMP act inh RFP: -12

What do the screens show for `COc1cccc(N2C(=O)NC(=O)/C(=C/c3ccc([N+](=O)[O-])s3)C2=O)c1`?
eIF4H inh: 51; CSC inhib: 2; PABP polyA inh: 33*; Env fusion inh: 0; Rce1 inh: inactive; MT1-MMP act inh: -28; UUG fidelity: 0; eIF4H inh retest: 47; PABP polyA inh retest: 62*; MT1-MMP act inh RFP: 15

How did Cc1ccc(S(=O)(=O)Oc2ccccc2C=C2C(=O)NC(=O)NC2=O)cc1 do in these assays?
Env fusion inh: -35; MT1-MMP act inh: 1; UUG fidelity: -15; MT1-MMP act inh RFP: -2

Results for O=C(c1ccccc1)C1NC1c1ccccc1 (stereo not given) ?
eIF4H inh: -12; CSC inhib: -7; PABP polyA inh: 2; Env fusion inh: -13; Rce1 inh: inactive; MT1-MMP act inh: 3; UUG fidelity: -22; MT1-MMP act inh RFP: -1

How did CCN(CC)c1ccccc1 do in these assays?
CSC inhib: 1; MT1-MMP act inh: 5; UUG fidelity: -10; MT1-MMP act inh RFP: 5

How did CCc1ccc(N2C(=O)NC(=O)/C(=C/c3cccn3CCOc3ccc(C)cc3)C2=O)cc1 do in these assays?
eIF4H inh: inconclusive; PABP polyA inh: -1; Env fusion inh: -23; Rce1 inh: inactive; MT1-MMP act inh: -5; MT1-MMP act inh RFP: 0

What do the screens show for `COC(=O)C1=C(c2cccc(OCc3ccccc3)c2)C[C@@H]2CC[C@H]1N2C(=O)NCc1ccc([N+](=O)[O-])cc1`?
CSC inhib: 20; Env fusion inh: -1; MT1-MMP act inh: 5; UUG fidelity: -14; MT1-MMP act inh RFP: -9

What do the screens show for `COc1ccc(OC)c(N2C(=O)NC(=O)C3(Cc4cc(C)ccc4N(C)C3)C2=O)c1` (stereo not given)?
eIF4H inh: 12; CSC inhib: -11; PABP polyA inh: 3; Env fusion inh: -91; MT1-MMP act inh: -4; UUG fidelity: -11; MT1-MMP act inh RFP: -1

Results for CN1CCN(Cc2cn3cccnc3n2)CC1 ?
eIF4H inh: -10; CSC inhib: -23; PABP polyA inh: 8; Env fusion inh: 22; Rce1 inh: inactive; MT1-MMP act inh: 1; MT1-MMP act inh RFP: 3

Random excerpt: 2 records from the list, in no set order.
How did CCc1ccc(N2C(=O)NC(=O)/C(=C/c3cccn3CCOc3ccc(C)cc3)C2=O)cc1 do in these assays?
eIF4H inh: inconclusive; PABP polyA inh: -1; Env fusion inh: -23; Rce1 inh: inactive; MT1-MMP act inh: -5; MT1-MMP act inh RFP: 0

Results for CC(Cc1ccccc1Sc1ccc(O)cc1)N(C)C (stereo not given) ?
eIF4H inh: -7; CSC inhib: -11; PABP polyA inh: 4; Rce1 inh: inactive; MT1-MMP act inh: -20; MT1-MMP act inh RFP: -12

(further entries)
What do the screens show for `O=c1c2ccccc2nc(-c2ccccc2)n1-c1ccccc1O`?
eIF4H inh: 4; CSC inhib: 54; PABP polyA inh: 3; Env fusion inh: -24; Rce1 inh: inactive; MT1-MMP act inh: -5; UUG fidelity: -2; MT1-MMP act inh RFP: 2

How did CC(C)c1ccc(-n2c(O)c(C=NCCN3CCNCC3)c(=O)[nH]c2=S)cc1 do in these assays?
eIF4H inh: -6; CSC inhib: -12; PABP polyA inh: 6; Env fusion inh: -8; Rce1 inh: inactive; MT1-MMP act inh: -5; UUG fidelity: -24; MT1-MMP act inh RFP: 1

How did O=C(Cc1ccccc1)Oc1ccc([N+](=O)[O-])cc1 do in these assays?
eIF4H inh: -15; CSC inhib: -15; PABP polyA inh: 6; Env fusion inh: -11; Rce1 inh: inactive; UUG fidelity: -34

What do the screens show for `COC(=O)C1=C(c2cccc(OCc3ccccc3)c2)C[C@@H]2CC[C@H]1N2C(=O)NCc1ccccc1OC`?
CSC inhib: 33; Env fusion inh: -12; MT1-MMP act inh: -1; UUG fidelity: -3; MT1-MMP act inh RFP: -9

What do the screens show for `C=CCNC(=S)N1Cc2ccccc2-n2nncc2C1`?
Env fusion inh: -67; MT1-MMP act inh: 1; UUG fidelity: 0; MT1-MMP act inh RFP: 3

What do the screens show for `CCC(=NCC1CCCO1)c1c(O)n(-c2ccc(Cl)cc2)c(=O)[nH]c1=O` (stereo not given)?
eIF4H inh: 6; CSC inhib: -8; PABP polyA inh: -1; Env fusion inh: -90; Rce1 inh: inactive; MT1-MMP act inh: 7; UUG fidelity: -8; MT1-MMP act inh RFP: 13

What do the screens show for `CC(=O)O[C@@]12CO[C@@H]1C[C@H](OC1OCC(O)C(O)C1O)[C@@]1(C)C(=O)[C@H](O)C3=C(C)[C@@H](OC(=O)[C@H](O)[C@@H](NC(=O)c4ccccc4)c4ccccc4)C[C@@](O)([C@@H](OC(=O)c4ccccc4)C12)C3(C)C` (stereo not given in full)?
eIF4H inh: -6; CSC inhib: 42; PABP polyA inh: 15; Rce1 inh: inactive; MT1-MMP act inh: -2; UUG fidelity: 14; MT1-MMP act inh RFP: -9

Results for O=C(C1CCCN(c2nnc(-n3cccc3)s2)C1)N1CCC2(CC1)OCCO2 (stereo not given) ?
eIF4H inh: -8; CSC inhib: 15; PABP polyA inh: -11; Rce1 inh: inactive; MT1-MMP act inh: 6; UUG fidelity: -8; MT1-MMP act inh RFP: 2

Results for COc1ccc2c(c1)[C@@]13CCC=C[C@H]1[C@@H](C2)NCC3 ?
CSC inhib: -10; MT1-MMP act inh: -22; UUG fidelity: -22; MT1-MMP act inh RFP: -5

Results for COC(=O)C1=C(c2ccc(F)cc2F)C[C@@H]2CC[C@H]1N2C(=O)NC(C)C ?
CSC inhib: 10; MT1-MMP act inh: -1; UUG fidelity: -4; MT1-MMP act inh RFP: 1

Results for CCCCn1c(O)c(C(CC)=NCc2ccc(F)cc2)c(=O)[nH]c1=O ?
eIF4H inh: -3; CSC inhib: -6; PABP polyA inh: -12; Env fusion inh: -9; Rce1 inh: inactive; MT1-MMP act inh: -3; UUG fidelity: 1; MT1-MMP act inh RFP: -5

What do the screens show for `O=S(=O)(c1ccccc1)N1CN2CCN(C2)C1`?
eIF4H inh: 3; CSC inhib: -9; PABP polyA inh: -9; Rce1 inh: inactive; MT1-MMP act inh: 5; UUG fidelity: -23; MT1-MMP act inh RFP: 3

Results for Cc1ccc(Cn2nnnc2CN2CCC(n3nnc4cc(C(F)(F)F)ccc43)CC2)cc1 ?
eIF4H inh: 6; CSC inhib: -4; PABP polyA inh: -3; Env fusion inh: -15; Rce1 inh: inactive; MT1-MMP act inh: 3; UUG fidelity: -3; MT1-MMP act inh RFP: -10

How did Cc1c(NP(=S)(C(C)(C)C)C(C)(C)C)c(=O)n(-c2ccccc2)n1C do in these assays?
eIF4H inh: -2; CSC inhib: -12; PABP polyA inh: -6; Env fusion inh: 0; Rce1 inh: inactive; MT1-MMP act inh: -1; MT1-MMP act inh RFP: 2

Results for Fc1ccc2c(c1)nnn2C1CCN(Cc2nnnn2C2CCCCC2)CC1 ?
eIF4H inh: -4; CSC inhib: -9; PABP polyA inh: 18; Env fusion inh: -4; Rce1 inh: inactive; MT1-MMP act inh: 5; UUG fidelity: 6; MT1-MMP act inh RFP: -2

Results for CN1CCN(Cc2ccc(OC(F)(F)F)cc2)CC1 ?
eIF4H inh: -2; CSC inhib: 24; PABP polyA inh: 10; Rce1 inh: inactive; MT1-MMP act inh: 0; UUG fidelity: 0; MT1-MMP act inh RFP: 5

How did CC1C2Cn3c(nc4ccccc43)C1N(C)O2 (stereo not given) do in these assays?
eIF4H inh: 8; CSC inhib: 18; PABP polyA inh: 8; Env fusion inh: -18; Rce1 inh: inactive; MT1-MMP act inh: 1; UUG fidelity: -19; MT1-MMP act inh RFP: 3

Results for Cc1ccc(-n2c(-c3ccc([N+](=O)[O-])cc3)nc3ccccc3c2=O)cc1 ?
eIF4H inh: -11; CSC inhib: -3; PABP polyA inh: -2; Env fusion inh: 1; Rce1 inh: inactive; MT1-MMP act inh: 0; MT1-MMP act inh RFP: -3

Results for CCN1CCN(C(=O)COc2ccc(S(=O)(=O)N3CCOCC3)cc2C)CC1 ?
eIF4H inh: -1; CSC inhib: -21; PABP polyA inh: -13; Env fusion inh: 1; Rce1 inh: inactive; MT1-MMP act inh: -3; UUG fidelity: -20; MT1-MMP act inh RFP: 0

What do the screens show for `OC(c1ccccc1)(c1ccccc1)C1CCCN1` (stereo not given)?
eIF4H inh: 7; CSC inhib: -6; PABP polyA inh: -4; MT1-MMP act inh: 2; UUG fidelity: 7; MT1-MMP act inh RFP: 1

How did COc1ccccc1N1CCN(Cc2ccccc2)CC1 do in these assays?
eIF4H inh: 14; CSC inhib: 13; PABP polyA inh: 6; Env fusion inh: -18; Rce1 inh: inactive; MT1-MMP act inh: 0; UUG fidelity: -2; MT1-MMP act inh RFP: 6

How did COc1cccc(OCc2cc(C(=O)N3C[C@H]4C[C@@H](C3)c3cccc(=O)n3C4)no2)c1 do in these assays?
eIF4H inh: -4; PABP polyA inh: 10; Env fusion inh: -46; Rce1 inh: inactive; MT1-MMP act inh: -4; UUG fidelity: -17; MT1-MMP act inh RFP: 1

What do the screens show for `CC(C)c1ccc(-n2c(O)c(C=NC(CCS(C)=O)C(=O)O)c(=O)[nH]c2=S)cc1` (stereo not given)?
eIF4H inh: 9; CSC inhib: -5; PABP polyA inh: -2; Env fusion inh: 10; Rce1 inh: inactive; MT1-MMP act inh: 6; UUG fidelity: -35; MT1-MMP act inh RFP: 8

Compound activity deposited in PubChem BioAssay by several laboratories.
